LMNA splice mod – qHTS Assay for Modulators of Lamin A Splicing; 200,000 tested, 0.01% active; AID 1487, 2009; HeLa LMNA splicing GFP/RFP minigene ratio, 48 h; Potency, µM (highest dose often 46.1 µM), without a hit: at the highest dose ratio change, negative = inhibition, hits mostly inhibitors; active means well fitted inhibition curve with a large enough effect in the signal ratio, with a control signal flat, not every such curve was filed as active; inconclusive means small, poorly fitted or top-dose-only effect, or effect the other way, or a change in a side signal; the % refers to the signal ratio; further: on the % scale 0 is the no-effect control and ±100 the full control effect
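Read-out is the ratio of GFP to DsRed2 object intensity, acquired by 488 nm laser-scanning cytometry on HeLa lamin A-EGFP minigene reporter cells. Compound incubation 48 hrs at 37 °C in Opti-MEM with 2% FBS; DMSO 0.5% final.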
ALDH1A1 block – qHTS Assay for Inhibitors of Aldehyde Dehydrogenase 1 (ALDH1A1). Aldehyde dehydrogenase 1A1 (Homo sapiens), P00352. Purified ALDH1A1, NADH fluorescence, propionaldehyde substrate. Potency, µM (highest dose often 75.3 µM), for the others: at the highest dose activity, negative = inhibition, hits mostly inhibitors. 220,000 tested, 7.3% active; active means well fitted inhibition curve with a large enough effect, not every such curve was filed as active; inconclusive means small, poorly fitted or top-dose-only effect, or another doubt; inactive means no such curve, though single readings can be large or run the other way;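 further: plate controls were no enzyme wells and a reference inhibitor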
Target sequence (P00352 whole entry, looked up): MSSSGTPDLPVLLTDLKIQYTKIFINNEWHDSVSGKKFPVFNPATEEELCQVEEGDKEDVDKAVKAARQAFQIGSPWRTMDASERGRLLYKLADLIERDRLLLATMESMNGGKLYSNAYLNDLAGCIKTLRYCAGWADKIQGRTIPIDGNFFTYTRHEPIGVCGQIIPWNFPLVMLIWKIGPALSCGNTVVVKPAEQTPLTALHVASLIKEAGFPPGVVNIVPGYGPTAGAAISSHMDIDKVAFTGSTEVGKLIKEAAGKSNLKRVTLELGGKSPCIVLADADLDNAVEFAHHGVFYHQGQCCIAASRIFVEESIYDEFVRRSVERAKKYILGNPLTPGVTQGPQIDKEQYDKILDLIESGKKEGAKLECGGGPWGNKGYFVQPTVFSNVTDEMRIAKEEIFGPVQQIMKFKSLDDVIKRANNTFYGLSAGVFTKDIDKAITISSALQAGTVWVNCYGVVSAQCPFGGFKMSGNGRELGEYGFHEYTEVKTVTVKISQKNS
KinaseGlo FLuc – Counterscreen for Luciferase (Kinase-Glo TM) Inhibition; AID 1379, 2008; Potency, µM (highest dose often 38.3 µM), inactives show top-dose activity change, negative = inhibition, hits mostly inhibitors; 200,000 tested, 0.28% active; Kinase-Glo luciferase, ATP luminescence, 8 min; further: on the % scale 0 is the no-effect control and ±100 the full control effect; nearly all actives have a fitted effect of over 60% in size
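Substrate mix (final 50 mM imidazole pH 7.2, 50 mM KCl, 7 mM MgCl2, 10 uM ATP, 0.01% Tween 20, 0.05% BSA) plus pin-tool compound, then Kinase-Glo detection mix; 8 min ambient, luminescence read.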
SMN2 splice enh – qHTS Assay for Enhancers of SMN2 Splice Variant Expression | HEK293 SMN2-luciferase splicing reporter, luminescence, 30-36 h | Potency, µM (highest dose often 46.1 µM), for inactives: top-dose activity change, positive = activation, most hits filed as activators | 210,000 tested, 2.8% active; further: % of control where 0% means no effect; nearly all actives have a fitted effect of over 55% in size
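qHTS luciferase splicing reporter: luminescence rises when SMN2 exon 7 is included in transfected HEK293 cells. Compound exposure lasted 30-36 h at 37C, with 4.5 mM final sodium butyrate as control, followed by a ONE-Glo read.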
L3MBTL1 inh – qHTS Assay for the Inhibitors of L3MBTL1; AID 485360, 2010; Potency, µM (titrated, usually from 57.1 µM), without a hit: at the highest dose activity, negative = inhibition, hits mostly inhibitors; Lethal(3)malignant brain tumor-like protein 1 (Homo sapiens), Q9Y468; AlphaScreen L3MBTL1–H3K9me1 peptide binding; 230,000 tested, 0.66% active; further: on the % scale 0 is the no-effect control and ±100 the full control effect; nearly all actives have a fitted effect of over 60% in size
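AlphaScreen proximity signal between nickel-chelate acceptor and streptavidin donor beads (final 10 ug/mL) reports binding of 50 nM L3MBTL1 to 75 nM biotin-H3 K9me1 peptide; complex incubated with compounds 30 min at room temperature; cefsulodin titration as control.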
Tau ThT inhib – qHTS for Inhibitors of Tau Fibril Formation, Thioflavin T Binding; Microtubule-associated protein tau (Homo sapiens), P10636; recombinant tau K18 P301L (four-repeat tau fragment), heparin-induced fibrillization, ThT fluorescence; Potency, µM (series often up to 57.4 µM), inactives show at the highest dose activity, negative = inhibition, usual class: inhibitors; 270,000 tested, 2.1% active; further: on the % scale 0 is the no-effect control and ±100 the full control effect; nearly all actives have a fitted effect of over 55% in size
Target sequence (P10636 561-689 P618L limits assumed): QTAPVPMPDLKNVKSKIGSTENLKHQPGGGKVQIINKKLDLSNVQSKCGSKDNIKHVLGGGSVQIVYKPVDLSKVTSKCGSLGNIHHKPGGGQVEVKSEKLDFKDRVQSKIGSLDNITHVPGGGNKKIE
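Aggregation was driven by heparin (20 uM final) acting on recombinant tau […] bearing P301L in 100 mM sodium acetate pH 7; fibrils were detected with Thioflavin T.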
RECQ1 helicase – qHTS Assay for Inhibitors of RecQ-Like Dna Helicase 1 (RECQ1). 240,000 tested, 0.54% active. RECQ1 DNA unwinding, red fluorescence kinetic read. ATP-dependent DNA helicase Q1 (Homo sapiens), P46063. Potency, µM (titrated, usually from 57.3 µM), for the others: at the highest dose activity, negative = inhibition, actives largely listed as inhibitors;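 further: plate controls were vehicle for no effect and no enzyme for full effect; nearly all actives have a fitted effect of over 30% in size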
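RECQ1T1 50 nM; forked duplex (20 bp + 30-nt ss tails) 200 nM, ATP 2 mM final; pH 8.0, 2 mM MgCl2, 2.5 ug/ml poly(dI-dC); 15 min compound preincubation; discontinuous kinetic read over 2 h at RT.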
* marks the source's active call; other numbers are inactive results; i = inactive; ? = inconclusive; / = not tested or not shown; [ ] = another dose, or the depositor's remark. Unless noted, the call rests on the fitted dose curve; in most records, active means well fitted curve in the direction sought with a large enough effect; inconclusive means small, poorly fitted or top-dose-only effect, or another doubt; inactive means no such curve, though single readings can be large; an effect the other way counts as inactive or inconclusive. Potency means the concentration at half of the fitted maximal effect. These rows are one share of the data (hit frequency here may not be typical).

molecule | KinaseGlo FLuc | ALDH1A1 block | Tau ThT inhib | RECQ1 helicase | LMNA splice mod | L3MBTL1 inh | SMN2 splice enh
O=C(O)c1ccnc(C(=O)O)c1 | -3% | ? | 1% | i | -1% | -80% | 6%
Cc1ccc(C(C)(C)C)c(OCCCn2ccnc2)c1 | -1% | -5% | 7% | -1% | -2% | -1% | -1%
N#Cc1cc2c(nc1SC1CC(=O)N(c3ccccc3)C1=O)CCC2 (configuration not stated) | -5% | -14% | -11% | 12% | 7% | 5% | -78%[inhibitor]
CCCCC(=O)Nc1nn(CCC)c2nc3ccccc3cc12 | 13% | ? | 10% | 3% | 7% | 38%[activator] | ?
CS(=O)(=O)N1CCc2cc(C(=O)OCC(=O)c3ccccc3)ccc21 | 16% | -4% | -13% | -2% | 7% | / | -4%
Cc1ccc(NC(=O)CN2CCCCCC2)cc1Br | -4% | ? | 5% | -4% | 4%[9.22 µM] | -19% | -18%
Cc1cccc(C(=O)N2CCC(=O)N([C@H](COCc3cccc(Cl)c3)Cc3ccccc3)CC2)c1 | 3%[39.9 µM] | ? | -20% | 5% | / | / | /
CSc1ccccc1NC(=O)CNCCCN1CCOCC1 | / | / | -11% | i | / | 4% | /
O=C(/C=C/Nc1ccc(Oc2ccccc2)cc1)c1ccco1 | ? | 0% | ? | -10% | / | -8% | /
CC1CC(C)CN(C(=O)C(C)N(C)CC(=O)Nc2ccc(Cl)cc2)C1 (configuration not stated) | / | ? | -2% | -3% | / | / | /
Cc1ccc(Cl)c(OCCCN(C)Cc2ccccc2)c1 | / | / | ? | -8% | ? | / | /
O=C(O)[C@@H](c1ccccc1)N1Cc2ccccc2C1=O | 3% | ? | -6% | -8% | 11% | 18µM* | 0%

Next section; the last five above are carried over.
molecule | KinaseGlo FLuc | ALDH1A1 block | Tau ThT inhib | RECQ1 helicase | LMNA splice mod | L3MBTL1 inh | SMN2 splice enh
CSc1ccccc1NC(=O)CNCCCN1CCOCC1 | / | / | -11% | i | / | 4% | /
O=C(/C=C/Nc1ccc(Oc2ccccc2)cc1)c1ccco1 | ? | 0% | ? | -10% | / | -8% | /
CC1CC(C)CN(C(=O)C(C)N(C)CC(=O)Nc2ccc(Cl)cc2)C1 (configuration not stated) | / | ? | -2% | -3% | / | / | /
Cc1ccc(Cl)c(OCCCN(C)Cc2ccccc2)c1 | / | / | ? | -8% | ? | / | /
O=C(O)[C@@H](c1ccccc1)N1Cc2ccccc2C1=O | 3% | ? | -6% | -8% | 11% | 18µM* | 0%
Cc1ccc(-c2ccc(C(=O)Nc3cccc(F)c3)o2)c2ccccc12 | -1% | ? | ? | i | ? | -1% | -1%
S=c1nn[nH]n1C12CC3CC(CC(C3)C1)C2 | 21% | 2.8µM* | -5% | i | 3% | / | -17%
COc1ccc(NC(C)=O)cc1NC(C)C(=O)Nc1cccc2ccccc12 (configuration not stated) | 16% | 1% | -13% | -5% | 3% | / | ?
Fc1ccc(CNCc2ccccc2Cl)cc1 | 6% | 11µM* | -4% | -11% | ? | 12% | 12%
Cc1cc(C(=O)OCC(=O)c2cccs2)c2ccccc2n1 | -1% | ? | -8% | -3% | ? | 3% | /
CCCN1C(=O)/C(=C/c2ccc(C)o2)NC1=S | 0% | 7.1µM* | 25µM* | -9% | / | / | -9%
O=C(Nc1nnc(C2=COCCO2)o1)c1ccc(S(=O)(=O)N2CCCC2)cc1 | 4% | -84% | 2% | -4% | ? | / | /
O=C(c1ccc2ccccc2c1)C1CCCN(S(=O)(=O)c2cccnc2)C1 (configuration not stated) | 0% | 25µM* | -12% | -4% | ? | -12% | /
Fc1ccccc1/C=C1\CCCC2=C1Nc1ncnn1C2c1ccccc1F (configuration not stated) | 5% | ? | ? | -6% | ? | / | 2%
CC(=O)Nc1ccc(N=Cc2ccc(OCc3ccccc3)cc2)cc1 | -2% | ? | -20% | -18% | -6% | 31%[activator] | ?
Cn1c(=O)c(C(=O)Nc2ccccn2)c(O)c2ccccc21 | / | ? | -16% | -8% | ? | 15% | /
O=c1cc(CO)oc(C(Nc2cccc([N+](=O)[O-])c2)c2ccccn2)c1O (configuration not stated) | 8% | 3% | ? | -2% | -8% | 3% | 1%

In a second layout: entries from further up
Cc1ccc(-c2ccc(C(=O)Nc3cccc(F)c3)o2)c2ccccc12
- KinaseGlo FLuc: -1%
- ALDH1A1 block: ?
- Tau ThT inhib: ?
- RECQ1 helicase: i
- LMNA splice mod: ?
- L3MBTL1 inh: -1%
- SMN2 splice enh: -1%

S=c1nn[nH]n1C12CC3CC(CC(C3)C1)C2
- KinaseGlo FLuc: 21%
- ALDH1A1 block: 2.8µM*
- Tau ThT inhib: -5%
- RECQ1 helicase: i
- LMNA splice mod: 3%
- L3MBTL1 inh: /
- SMN2 splice enh: -17%

The listing continues.
molecule | KinaseGlo FLuc | ALDH1A1 block | Tau ThT inhib | RECQ1 helicase | LMNA splice mod | L3MBTL1 inh | SMN2 splice enh
COc1ccc(/C(C)=N\Nc2nc(-c3ccc(Cl)cc3)cc(C(F)(F)F)n2)cc1OC | 4% | 0% | ? | -8% | -7% | -3% | -26%
Cc1ccoc1C(=O)Nc1ccc(CC(=O)O)cc1 | -29% | 6% | -8% | i | 9% | / | ?
CCN1c2ccccc2-c2nc3ccccc3n2C1c1cccs1 (configuration not stated) | 0% | ? | -20% | -26% | ? | 52%[activator] | -12%
CCC(C)N1CCCC1C(=O)Nc1c(C)cc(C)cc1C (configuration not stated) | -1% | 1% | 5% | i | -11% | 33%[activator] | 3%
COC(=O)c1c(NC(=O)CN2CCN(c3ccccc3Cl)CC2)sc(C)c1C | 1% | 3.5µM* | ? | 2% | ? | -4% | -26%
Cc1ccc(-c2cc(C(=O)Nc3cc(C(=O)O)ccc3C)c3ccccc3n2)cc1 | / | 8% | -1% | 32%[activator] | / | / | /
COc1ccc(NC(C)=O)cc1NC(C)C(=O)Nc1ccccc1F (configuration not stated) | -9% | 7% | -11% | -12% | -5% | -14% | 7%
C/C(CCC1CC(C)OC1=O)=N\NC(N)=S (configuration not stated) | / | / | -3% | 1% | / | 3% | /
CC(=O)N/C(=C/c1ccc2c(c1)OCO2)C(=O)NCc1ccccc1 | 2% | 2% | 3% | i | ? | -6% | -11%
O=C(NNc1ccccn1)C(=O)NNS(=O)(=O)c1ccc(F)cc1 | -1% | 7% | -5% | i | -8%[46 µM] | -30% | -5%
COc1cccc2sc(NNC(=O)c3nc4ccccc4s3)nc12 | -2% | 4% | 7.9µM* | ? | ? | -6% | -53%[inhibitor]
O=C(NCc1ccco1)c1ccc2c(=O)n(CCC3=CCCCC3)c(=O)[nH]c2c1 | 10% | ? | -6% | i | 7% | -3% | -3%
C/C=C/c1ccc(OCCCCN2CC(C)CC(C)C2)c(OC)c1 (configuration not stated) | 1% | ? | -7% | -9% | ? | -18% | -2%
CC(C(=O)NC(C)(C)C)N(Cc1cccs1)C(=O)CCN1CCc2ccccc21 (configuration not stated) | -1% | -1% | -13% | i | 4%[46 µM] | / | 0%
OC(CON=C1c2ccccc2-c2ccccc21)CN1CCNCC1 (configuration not stated) | 9% | ? | -10% | 5% | ? | / | -7%
Cc1ccc(S(=O)(=O)N(C(=O)c2ccncc2)c2ccc(OC(=O)c3ccncc3)cc2)cc1 | 0% | -6% | ? | 3% | -10% | 5% | -6%
c1ccc(Cc2ccc(OCCCNC3CCCC3)cc2)cc1 | 2% | ? | -14% | 12% | / | -1% | -8%
CCOC(=O)c1c(-c2ccc(C)o2)csc1NC(=O)COC(=O)c1cccs1 | -4% | 14µM* | -10% | i | -8% | -15% | 8%
COc1ccc(C2NC(=O)C(C#N)=C(S)N2c2ccc(C)cc2)cc1OC (configuration not stated) | 0% | 18µM* | 32µM* | 1% | / | 0% | 17%
CN1CCN(Cc2oc(CO)cc(=O)c2O)CC1 | -2% | -2% | -1% | i | -1% | / | 12%
CC1CCN(C(=O)c2[nH]cnc2C(=O)N[C@@H](C)C(=O)OC(C)(C)C)CC1 | / | / | -1% | i | / | / | /
C=CCNc1nc(-c2cccs2)c(CC(=O)O)s1 | / | / | -16% | -7% | / | / | /
Cc1noc(-c2ccccc2)c1NC(=O)Nc1ccc(Cl)cc1 | / | 3% | -12% | -5% | / | 0% | /
N#C/C(=C/c1ccc([N+](=O)[O-])cc1)C(N)=O | -1% | ? | ? | i | / | / | 2%
COc1ccc(/C=N/Nc2nc(-c3ccc(Cl)cc3)cc(C(F)(F)F)n2)cc1OC | 0% | 1% | ? | -8% | ? | -10% | -58%[inhibitor]
COc1cc2c(cc1OC)CN(C(=O)COc1ccc(C#N)cc1)CC2 | -1% | 0% | ? | -1% | 12% | 4% | -20%
COc1ccc(OC)c(NC(=O)NC2(C(F)(F)F)Oc3ccccc3O2)c1 | 1% | 7.1µM* | ? | 21% | -5% | -15% | 9%
CC(C)(C)n1nnnc1C(c1ccncc1)N(Cc1ccccc1)Cc1ccco1 (configuration not stated) | 0% | ? | -13% | -24% | 2% | / | 9%
COc1ccc2c(c1)C(=O)c1ccccc1CO2 | -24% | 4µM* | ? | i | 20% | / | ?
Cc1ccccc1-n1c(=O)/c(=C\c2ccco2)s/c1=C(/C#N)C(=O)Nc1ccccc1 | -1% | 20µM* | 16µM* | ? | 5% | -6% | -2%
Nc1c(NCCN2CCOCC2)c2ccccc2oc1=O | 0% | 7% | ? | -1% | 2% | / | 6%
CN(C)CCCNc1ncnc2scc(-c3ccccc3)c12 | 0% | 18µM* | 2% | i | / | -5% | -1%
CCOCCCNC(=S)N1CCN(C(=O)C(=O)Nc2ccc(C(=O)OC)cc2)CC1 | 3% | 3% | ? | -4% | -6% | 8% | -12%
CCOc1cccc(OCCNC2CCCC2)c1 | 3% | -19% | -4% | i | 2%[46 µM] | -5% | -3%
O=C(O)c1cc(-c2ccccc2Cl)n[nH]1 | -1% | 7% | 0% | 1% | 1% | / | 3%
COc1cc(OC)c(OC)cc1/C=C1\CCC(C2CCCC2)C1=O (configuration not stated) | 2% | 2µM* | ? | -8% | ? | -14% | -24%
CC1CN(CCCCN2C(=O)c3ccccc3C2=O)CC(C)O1 (configuration not stated) | 3% | ? | -7% | -11% | -11%[46 µM] | 5% | -3%

Screening data as filed in PubChem.
